Bioassay records deposited in PubChem BioAssay by Vanderbilt University.
GIRK2 activ: activators of human GIRK2 potassium channels. G protein-activated inward rectifier potassium channel 2 (Homo sapiens), P48051. HEK293-GIRK2 thallium flux, Thallos fluorescence. calls only for hits at 25 µM. 0.05% of 63,000 active. AID 1259325, 2017;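 active means among the strongest 0.2% of first-round signals and kept after retests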;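 further: first round at about 10 µM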
Target sequence (P48051 whole entry, looked up): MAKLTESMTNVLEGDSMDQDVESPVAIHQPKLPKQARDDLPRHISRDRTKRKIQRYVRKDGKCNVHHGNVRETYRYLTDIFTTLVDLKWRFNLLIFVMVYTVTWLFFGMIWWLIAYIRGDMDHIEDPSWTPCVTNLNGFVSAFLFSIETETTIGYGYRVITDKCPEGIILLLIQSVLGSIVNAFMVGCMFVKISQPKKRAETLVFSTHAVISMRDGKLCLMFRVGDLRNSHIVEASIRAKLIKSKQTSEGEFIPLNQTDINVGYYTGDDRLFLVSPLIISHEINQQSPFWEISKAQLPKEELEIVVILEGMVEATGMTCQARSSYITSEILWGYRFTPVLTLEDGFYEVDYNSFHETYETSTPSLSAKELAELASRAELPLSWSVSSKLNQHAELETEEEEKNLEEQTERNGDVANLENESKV
Calls only; i = inactive. The list is partial. The share of hits here may be higher or lower than overall.

GIRK2 activ	smiles
i	CCn1c(SCC(N)=O)nc2c(-c3ccc(C)cc3)csc2c1=O
i	O=C(c1ccc(OCc2nc(-c3ccco3)cs2)cc1)N1CCC2(CC1)OCCO2
i	CCC(C(=O)N1CCN(Cc2c(C)noc2C)CC1)c1ccccc1 (stereo not given)
i	CSc1nnc(C(C)C)c2cnn(-c3ccc(F)cc3)c12
i	COC(=O)c1ccc(C(=O)N2CCN(S(=O)(=O)C3CC3)CC2)cc1
i	CCCCN(C)S(=O)(=O)c1cc2c3c(c1)CCC(=O)N3CCC2
i	CCOC(=O)N1CCC(NC(=O)CSc2nnc(CCc3nc4ccccc4[nH]3)o2)CC1
i	Cc1cc(C)cc(-n2c(C)cn3c4c(=O)n(CC(N)=O)c(=O)n(C)c4nc23)c1
i	COc1ccc(CNC(=O)Cn2cnc3c([nH]c4ccccc43)c2=O)c(OC)c1
i	COC(=O)c1ccc(C2C(C(=O)c3cccs3)=C(O)C(=O)N2c2cc(C)on2)cc1 (stereo not given)
i	COc1cc(-c2noc(Cn3ccn4nc(-c5ccc(C)c(C)c5)cc4c3=O)n2)cc(OC)c1OC
i	COc1cccc(/C=N\NC(=O)CNC(=O)c2ccc(S(=O)(=O)N3CCOCC3)cc2)c1OC
i	O=C(Cn1c(=O)oc2ccc(Cl)cc21)Nc1ccc(S(=O)(=O)Nc2nccs2)cc1
i	O=C(/C=C/c1cccs1)Nc1nc2c(s1)COCC2
i	COc1ccc(C(=O)OC(c2ccc(OC)cc2)C(C)O)cc1 (stereo not given)
i	Cc1ccc(NC(=O)CSc2ncnc3nc(N4CCCC(C)C4)sc23)c(Br)c1 (stereo not given)
i	O=C(c1cccs1)N1CCN(CCNS(=O)(=O)CCN2C(=O)CCCC2=O)CC1
i	O=C(c1cccs1)N1CCN(c2nc(N3CCCC3)nc(-n3ccnc3)n2)CC1
i	COC(=O)c1ccccc1NS(=O)(=O)C1CC1
i	CCOC(=O)N1CCc2c(sc(NC(=O)C3CC3)c2-c2nc3ccccc3s2)C1
i	N#C/C(=C\c1ccc(Cl)cc1)c1nc2ccccc2s1
i	CCOc1ccc2ccccc2c1C(=O)N1CCC(c2nnc(C3CC3)o2)CC1
i	CC(C)c1nnc(C2CCN(C(=O)c3cccn(C)c3=O)CC2)o1
i	COC(=O)c1ccc(C(=O)N(CCn2cccn2)c2nc3c(Cl)cccc3s2)cc1
i	Cc1nnc(SCC(=O)N2CCOCC2)c2c1cnn2-c1ccccc1
i	O=C(CNC(=O)c1ccc(=O)[nH]c1)Nc1cc2ccccc2oc1=O
i	O=C(NCCn1ncc2c(NCc3ccc(F)cc3)ncnc21)C1CCCC1
i	COc1cc(/C=C2\Oc3c(ccc4c3CN(c3ccccc3F)CO4)C2=O)cc(OC)c1OC
i	Nc1c(C(=O)c2cccc(CCS(N)(=O)=O)c2)cnn1-c1ccc(F)cc1
i	CCCCCCCCCCCCC/C=C/[C@@H](O)[C@H](CO)NC(=O)CCCCCCC
i	CS(=O)(=O)Nc1cccc(NC(=O)c2csc(-c3cc4ccccc4[nH]3)n2)c1
i	COc1ccc(-n2ccn(CC(=O)Nc3ccc(OC)c(Cl)c3)c(=O)c2=O)cc1
i	Cc1cc2ncn(CC3CCN(CC(=O)Nc4cccnc4)CC3)c2cc1C
i	Cc1csc(SCC2CCN(C(=O)c3cccs3)CC2)n1
i	Cc1ccc(NC(=O)CN2N=NC3C(=O)N(c4ccc(C(C)C)cc4)C(=O)C32)c(Cl)c1 (stereo not given)
i	O=C(Nc1nc(-c2ccco2)cs1)c1nc(-c2cnccn2)no1
i	COc1ccccc1NC(=O)CSc1nccn1-c1ccc(C(=O)NCc2ccco2)cc1
i	COC(=O)C(C)Oc1ccc2c(c1C)O/C(=C\c1ccc(OC)cc1)C2=O (stereo not given)
i	O=C(/C=C/c1ccccc1Cl)NCC1CCN(C(=O)c2ccncc2)CC1
i	CCn1c(=O)c2c(nc3n(-c4ccccc4OC)c(C)cn23)n(C)c1=O
i	CCN(CC)CCCN1C(=O)C(O)=C(C(=O)c2ccc(C)o2)C1c1ccccn1 (stereo not given)
i	O=C(NCCn1ncccc1=O)c1cccc(C(F)(F)F)c1
i	CS(=O)(=O)C1CCN(C(=O)C2COc3ccccc3O2)CC1 (stereo not given)
i	CC1CCCN(C(=O)c2nnn(-c3ccc(C(F)(F)F)cc3)n2)C1 (stereo not given)
i	O=C(Cn1cc(S(=O)(=O)N2CCCCCC2)ccc1=O)NC1CCCC1
i	CCOC(=O)Cc1csc(NC(=S)NC(=O)c2ccccc2C)n1
i	Cc1c(NC(=O)CCCn2cnc(-c3ccccc3)cc2=O)c(=O)n(-c2ccccc2)n1C
i	O=C(Nc1ccccc1)c1cc([N+](=O)[O-])ccc1Cl
i	Nc1nc(NCCc2cccs2)ncc1[N+](=O)[O-]
i	CCCN(CCC)S(=O)(=O)c1cc(Cl)c(C)cc1OC

Laid out differently: 17 of the compounds above
mol	GIRK2 activ
CCCCCCCCCCCCC/C=C/[C@@H](O)[C@H](CO)NC(=O)CCCCCCC	i
CS(=O)(=O)Nc1cccc(NC(=O)c2csc(-c3cc4ccccc4[nH]3)n2)c1	i
COc1ccc(-n2ccn(CC(=O)Nc3ccc(OC)c(Cl)c3)c(=O)c2=O)cc1	i
Cc1cc2ncn(CC3CCN(CC(=O)Nc4cccnc4)CC3)c2cc1C	i
Cc1csc(SCC2CCN(C(=O)c3cccs3)CC2)n1	i
Cc1ccc(NC(=O)CN2N=NC3C(=O)N(c4ccc(C(C)C)cc4)C(=O)C32)c(Cl)c1 (stereo not given)	i
O=C(Nc1nc(-c2ccco2)cs1)c1nc(-c2cnccn2)no1	i
COc1ccccc1NC(=O)CSc1nccn1-c1ccc(C(=O)NCc2ccco2)cc1	i
COC(=O)C(C)Oc1ccc2c(c1C)O/C(=C\c1ccc(OC)cc1)C2=O (stereo not given)	i
O=C(/C=C/c1ccccc1Cl)NCC1CCN(C(=O)c2ccncc2)CC1	i
CCn1c(=O)c2c(nc3n(-c4ccccc4OC)c(C)cn23)n(C)c1=O	i
CCN(CC)CCCN1C(=O)C(O)=C(C(=O)c2ccc(C)o2)C1c1ccccn1 (stereo not given)	i
O=C(NCCn1ncccc1=O)c1cccc(C(F)(F)F)c1	i
CS(=O)(=O)C1CCN(C(=O)C2COc3ccccc3O2)CC1 (stereo not given)	i
CC1CCCN(C(=O)c2nnn(-c3ccc(C(F)(F)F)cc3)n2)C1 (stereo not given)	i
O=C(Cn1cc(S(=O)(=O)N2CCCCCC2)ccc1=O)NC1CCCC1	i
CCOC(=O)Cc1csc(NC(=S)NC(=O)c2ccccc2C)n1	i

Next compounds:
GIRK2 activ	smiles
i	Cc1ccc(NC(=O)C(=O)NCC2CCN(S(C)(=O)=O)CC2)cc1N1CCCC1=O
i	Cc1ccc(CNC(=O)Cn2nc(C3CCN(S(C)(=O)=O)CC3)n(C)c2=O)cc1
i	CCCC1([C@H](O)CCC[C@H]2C(O)CC(=O)C2CCCCCCC(=O)OC)CCC1 (stereo not given in full)
i	CC(C)CCNC(=O)c1ccc2c(=O)nc3c(-c4ccccc4F)n[nH]n3c2c1
i	COC(=O)C1c2ccsc2CCN1C(=O)c1ccc2c(c1)OCO2 (stereo not given)
i	Cc1cccn2cc(-c3cccc(NC(=O)c4ccc(N5C(=O)C6CCCCC6C5=O)cc4)c3)nc12 (stereo not given)
i	O=C(CCSc1ccccc1)Nc1ccccc1-c1ccc(=O)[nH]n1
i	O=C(CSc1ccc(F)cc1)N1CC(c2nc(-c3cnccn3)no2)C1
i	O=C(CN1CCC(COCc2ccc(F)cc2)CC1)Nc1ccc2c(c1)OCO2
i	COc1cc(C(=O)NC(c2nc3ccccc3[nH]2)C(C)C)cc(OC)c1OC (stereo not given)
i	CCOc1ccc2nc(N(Cc3cccnc3)C(=O)CSc3ccc(OC)cc3)sc2c1
i	Cc1ccc(N2CCn3c2nn(CC(=O)N2CCc4ccccc42)c(=O)c3=O)cc1
i	COc1cccc(NC(=O)c2nnn(Cc3nc(-c4ccc(OC)cc4OC)oc3C)c2N)c1
i	O=C(NCC1(c2cccs2)CCCC1)Nc1ccccc1
i	COc1ccc(CCNC(=O)N(CCc2cccs2)Cc2cccnc2)cc1
i	COc1cccc(COc2cn(C)c(C(=O)Nc3cc(C)cc(C)c3)cc2=O)c1
i	Cn1nc(CNC(=O)C2c3ccccc3Oc3ccccc32)cc1-c1ccco1
i	CNC(=O)CSc1nnc(N2CCN(C(=O)Cc3noc4ccccc34)CC2)s1
i	CCOc1ccc(S(=O)(=O)NCCNc2ccc(-n3cccc3)nn2)cc1
i	CC(C)Sc1ccc(CC(=O)NCC(C)(O)c2ccco2)cc1 (stereo not given)
i	Cc1nn(CCC(=O)Nc2ccc(F)cc2)c(C)c1Br
i	COc1ccc(NC(=O)CN2CC(c3nc(-c4cccc(Cl)c4)no3)C2)cc1
i	NC(=O)CN1CC(c2nc(C3CC3)no2)C1
i	O=C(C1CCN(c2nccn3nc(-c4ccccc4)cc23)CC1)N1CCC2(CC1)OCCO2
i	CCOc1ccc(NC(=O)N2CCC(Cn3cnc4cc(C)c(C)cc43)CC2)cc1
i	COC(=O)c1ccc(NS(=O)(=O)c2c(-c3ccc(C)cc3)csc2C(=O)OC)cc1
i	Cc1ccccc1Cn1c(=O)n(CCCC(=O)NCc2ccc3c(c2)OCO3)c(=O)c2ccccc21
i	CCc1nc2sc(C(c3cccc(F)c3)N3CCCC3)c(O)n2n1 (stereo not given)
i	O=C(CSc1nnc(N2CCN(C(=O)c3cccs3)CC2)s1)NCc1ccco1
i	O=C(NCC(O)c1ccc2c(c1)CCO2)C(=O)Nc1ccc2c(c1)OCO2 (stereo not given)
i	CS(=O)(=O)N1CCC(Oc2nc3c(F)cc(F)cc3s2)CC1
i	COc1ccc(-c2cc3c(=O)[nH]nc(SCc4nc(-c5cccs5)no4)n3n2)cc1OC
i	O=C(NCC1CC1)C1CCN(c2nc3ccccc3[nH]c2=O)CC1
i	Cn1nnnc1SCC(=O)N1CCC(Oc2ncccc2Br)CC1
i	CCOC(=O)c1cccc(NC(=O)Cn2nc3c(cc2=O)CC(C)CC3)c1 (stereo not given)
i	N#Cc1ccc(OC2CCN(C(=O)c3cccc(C(F)(F)F)c3)CC2)nc1
i	O=C(NCC(O)c1ccoc1)c1cc(-c2ccccc2)on1 (stereo not given)
i	COc1cc(/C=C2\Oc3c(ccc4c3CN(Cc3ccncc3)CO4)C2=O)cc(OC)c1OC
i	COC(=O)c1ccc(NC(=O)CSc2nc3c(-c4ccc(C)cc4)csc3c(=O)n2C)cc1
i	O=C(c1c(F)cccc1F)N1CCN(c2cc(Nc3ccccn3)ncn2)CC1
i	O=C(NCCN1CCN(c2ccc(Cl)cc2)CC1)C(=O)Nc1cccc(N2CCCCC2=O)c1
i	CN(C)c1cccc(C(=O)NCC2(O)CCCC2)c1
i	CCCCS(=O)(=O)N1CCN(c2ccc(-n3cccc3)nn2)CC1
i	Cc1c(C)n2c3c(=O)n(Cc4ccc(Cl)cc4)c(=O)n(C)c3nc2n1CCO
i	COc1cc(C)c(C(C)C)cc1S(=O)(=O)N1CCC(C)CC1
i	CN(C)CCNC(=O)C12CC3CC(C1)CC(c1ccccc1)(C3)C2
i	O=C(C1COCC(=O)N1Cc1ccccc1)N1CCN(c2cccc(C(F)(F)F)c2)CC1 (stereo not given)
i	CCCCN1CC(c2nc3ccccc3n2CCOc2ccccc2Cl)CC1=O (stereo not given)
i	COc1ccc(C(=O)Nc2ccc(Cn3cnc(C(=O)Nc4ccccc4C)c3)cc2)c(OC)c1
i	O=C(C(c1ccccc1)c1ccccc1)N1CC(c2nc(-c3cccc(Cl)c3)no2)C1

Further results follow:
GIRK2 activ	smiles
i	Cc1cn(-c2ccc(SCC(=O)NCc3cccc(Cl)c3)nn2)cn1
i	O=C(NCCCn1ccnc1)C(=O)NCc1ccc2c(c1)OCO2
i	COc1ccc(C(CNS(=O)(=O)c2ccc(OC)cc2)N2CCN(C)CC2)cc1 (stereo not given)
i	CCc1nc2sc(C(c3cccc(Cl)c3)N3CCCCC3)c(O)n2n1 (stereo not given)
i	CC(=O)CC1(O)C(=O)N(Cc2ccc(Cl)cc2Cl)c2c(C)cccc21 (stereo not given)
i	COc1ccc(NC(=O)c2ccc3nn(CC(=O)Nc4ccc(C(F)(F)F)cc4)c(=O)n3c2)cc1
i	CC(CNC(=O)C1CCC(Cn2c(=O)[nH]c3ccsc3c2=O)CC1)c1ccccc1 (stereo not given)
i	Cc1nc2cc(NC(=O)CN(C)c3nc4ccccc4s3)ccc2s1
i	Cc1ccc(C(=O)NCCn2nc(-n3ccnc3)ccc2=O)cc1C
i	CCCCOC(=O)C1=C(C)NC(=O)NC1c1ccccc1OCC (stereo not given)
i	COc1ccc(OC)c(S(=O)(=O)Nc2ccc3nnc(-c4cccc(C)c4)n3n2)c1
i	CC1CCN(C(=O)C2=NN(Cc3cccc(C#N)c3)c3ccccc3S2(=O)=O)CC1
i	O=C(Nc1ccc(F)c(Cl)c1)c1coc(NC(=O)c2cnccn2)n1
i	CCOc1ccc(-c2ccc(N3CCN(C(=O)c4ccc(Cl)nc4)CC3)nn2)cc1
i	O=C(CS(=O)(=O)Cc1ccccc1)N(Cc1ccco1)c1nc2ccc(F)cc2s1
i	CCc1nc2sc(C(c3ccc(Cl)cc3Cl)N3CCCCC3)c(O)n2n1 (stereo not given)
i	Cc1cccc(NC(=O)Cn2nc3c(Oc4ccc(Cl)cc4)nccn3c2=O)c1C
i	O=C(NCC(Cc1cccc(F)c1)N1CCNC1=O)c1ccc(=O)[nH]n1 (stereo not given)
i	O=C(O)C1CCCN1S(=O)(=O)c1cccc(C(F)(F)F)c1 (stereo not given)
i	CS(=O)(=O)N1CCCC(c2nnc(-c3ccccc3F)s2)C1 (stereo not given)
i	Cc1ccccc1NC(=O)NCC1(c2ccccc2)CCOCC1
i	O=C(Nc1ccc(S(=O)(=O)N2CCOCC2)cc1)c1c[nH]c2ccc(F)cc2c1=O
i	CCOc1ccc(S(=O)(=O)NCCNc2ccc(C)nn2)cc1
i	COc1ccc(-c2nc(=S)c3c([nH]2)Oc2ccc(C)cc2C3)c(OC)c1
